High-throughput results as filed in PubChem.
miR-21 reporter – qHTS Assay for Modulators of miRNAs and/orActivators of miR-21 | HeLa miR-21 FLuc reporter, luciferase, 48 h | Potency, µM (doses to about 38.3 µM), for the others: at the top dose reporter change, positive = more light | 340,000 tested, under 10 active | AID 2288, 2010; active = well fitted rising curve with a large enough effect; inconclusive = small, poorly fitted or top-dose-only effect; inactive = no such curve, though single readings can be large or run the other way;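 note: % of control where 0% means no effect; miR-21 action dims this reporter so a rising signal means less miR-21 action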
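Compounds were titrated across several concentrations (up to approximately 40 uM) and incubated 48 hours with HeLa miR-21-FLuc reporter cells (miR-21 target sequence downstream of FLuc, endogenous miR-21). Readout was firefly luciferase luminescence after lytic detection reagent.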
Rango-impB inh – qHTS Assay for Inhibitors of Rango (Ran-regulated importin-beta cargo) - Importin beta complex formation; Importin subunit beta-1 (Homo sapiens), Q14974; Rango CFP/YFP FRET sensor + importin beta, 45 min; Potency, µM (top dose mostly 92.2 µM), without a hit: top-dose inhibition of complex formation; actives 0.031% (n = 340,000); active = rising FRET ratio curve, often small or poorly fitted; inconclusive = mostly compound fluorescence or quenching in the first reads; inactive = flat curves in all reads;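 note: potency is the fitted concentration of half-maximal effect; 0% = DMSO wells and 100% = buffer wells lacking importin beta; nearly all actives have a fitted effect of over 15% in size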
Target sequence (Q14974 whole entry, looked up): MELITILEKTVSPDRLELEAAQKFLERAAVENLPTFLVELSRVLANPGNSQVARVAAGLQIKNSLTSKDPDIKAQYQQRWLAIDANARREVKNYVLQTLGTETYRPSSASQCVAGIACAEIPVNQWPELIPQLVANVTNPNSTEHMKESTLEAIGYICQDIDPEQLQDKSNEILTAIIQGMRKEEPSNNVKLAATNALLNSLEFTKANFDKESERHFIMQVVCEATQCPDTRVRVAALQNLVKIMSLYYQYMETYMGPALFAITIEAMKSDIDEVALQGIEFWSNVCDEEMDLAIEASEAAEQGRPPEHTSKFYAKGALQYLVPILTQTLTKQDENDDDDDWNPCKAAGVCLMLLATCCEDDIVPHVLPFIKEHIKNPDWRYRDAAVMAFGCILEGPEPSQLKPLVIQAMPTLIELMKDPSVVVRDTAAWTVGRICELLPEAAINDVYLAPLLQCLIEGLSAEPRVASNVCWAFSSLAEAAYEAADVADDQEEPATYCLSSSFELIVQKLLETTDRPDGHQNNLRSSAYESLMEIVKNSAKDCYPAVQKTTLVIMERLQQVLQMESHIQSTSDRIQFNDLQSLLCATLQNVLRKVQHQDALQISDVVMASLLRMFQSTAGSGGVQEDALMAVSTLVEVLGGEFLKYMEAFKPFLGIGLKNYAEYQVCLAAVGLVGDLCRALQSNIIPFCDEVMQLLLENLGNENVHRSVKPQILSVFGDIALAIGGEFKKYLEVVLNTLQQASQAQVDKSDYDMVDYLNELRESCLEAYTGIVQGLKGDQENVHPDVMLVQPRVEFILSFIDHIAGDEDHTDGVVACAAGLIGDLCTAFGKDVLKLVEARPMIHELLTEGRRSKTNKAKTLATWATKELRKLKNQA
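Inhibition scored from the CFP 486 nm/YFP 530 nm FRET ratio 45 min after adding 0.125 microM importin beta to 50 nM Rango biosensor preincubated 5 min with compound (room temperature, PBS with DTT, Tween-20, BSA). No-importin wells as positive control.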
GLA inh pH 4.5 – qHTS Assay for Inhibitors of Human alpha-Galactosidase at pH 4.5. Alpha-galactosidase A (Homo sapiens), P06280. purified enzyme, 4-MU-alpha-Gal fluorescence, pH 4.5. activity change, negative = inhibition, % at 105 µM. 230,000 tested, under 10 active; inconclusive = small, poorly fitted or top-dose-only inhibition, or a rising curve; inactive = flat fitted curve, though single readings scatter; no compound was filed as active;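 note: 0% = full activity with enzyme and -100% = basal without enzyme; dose as in the result columns while the protocol names 77 µM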
Rango release inh – qHTS Assay for Inhibitors of RanGTP induced Rango (Ran-regulated importin-beta cargo) - Importin beta complex dissociation. Biochemical FRET Rango-importin beta, RanGTP-induced dissociation. Potency, µM (titrated, usually from 46.1 µM), for inactives: top-dose activity change, negative = inhibition. actives 0.071% (n = 340,000). AID 540253, 2011; active means falling FRET ratio curve, often poorly fitted, with flat reads before Ran was added; inconclusive means other falling curves, or compound fluorescence or quenching; inactive means flat or rising ratio curve;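 note: potency is the fitted concentration of half-maximal effect; % of control where 0% means no effect; nearly all actives have a fitted effect of over 45% in size; -100% = wells without RanGTP and RCC1; the record marks most hits as doubtful in a second field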
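Quantitative HTS using a FRET biosensor: 0.1 uM Rango, 0.25 uM importin beta, 0.6 uM Ran, 2 mM GTP, 0.2 uM RCC1 final, PBS with DTT, Tween-20 and BSA. Post-read taken 45 min after Ran addition.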
Numbers without * were called inactive; ? = inconclusive; . = not tested or not shown; & = joins results of further samples; [ ] = another dose, or the depositor's remark. This is a subset; the hit share may differ from the screen's.

#1 CC1(C)CC(=O)c2sc(NS(C)(=O)=O)nc2C1
#2 O=S(=O)(Nc1ccc(O)c2ccccc12)c1ccc(F)cc1
#3 O=C(CCCOc1ccc(Br)cc1)NCCc1ccc(OC(F)F)cc1
#4 CC1CN(C(=O)C(C)N2CCN(c3ccccc3Cl)CC2)CC(C)O1 (centres undefined)
#5 CN(CC(=O)Nc1ccc2c(c1)OCO2)S(=O)(=O)c1ccc2c(c1)CCC(=O)N2
#6 O=C(CCSc1ccccc1)N1CCN(c2ccccc2F)CC1
#7 COc1ccc(C(=O)NN2C(=S)N(c3ccc(OC)cc3)C(=O)C2CC(N)=O)cc1 (centres undefined)
#8 CCOC(=O)NC(CC(=O)O)c1ccc(OCC)cc1 (centres undefined)
#9 COc1ccc(-c2oc3cccnc3c2C#CC2(O)CCCCC2)cc1
#10 CC1C2(C)OC(=N)C(C#N)(C(C)O2)C1(C#N)C#N (centres undefined)
Compound,1,2,3,4,5,6,7,8,9,10
miR-21 reporter,-3%,.,-3%,-2%,-3%,-70%,-14%,-4%,4%,-3%
Rango-impB inh,?,2.1%,0.4%,0.4%,4.7%,1.3%,-1.7%,1.6%,?,?
GLA inh pH 4.5,7,.,.,0[21.1 µM],2,0,3,11,.,?
Rango release inh,9%,16%,0%,-4%,-9%,?,6%,-29%,-5%,?

#11 C=CCSC1=C(C#N)C(c2ccccc2OC)CC(=O)N1 (centres undefined)
#12 COc1ccc(-c2oc3ccc(-c4cc(OC)c(OC)c(OC)c4)cc3c2-c2ccc(OC)cc2)cc1
#13 Cc1ccc(CNC(=O)COC(=O)CCCOc2ccc(Cl)cc2Cl)cc1
#14 COCCNC(=S)NCCc1ccc(Cl)cc1Cl
#15 O=C(Nc1ccccc1C(=O)Nc1nnc(C(F)(F)F)s1)c1ccccc1Cl
#16 CCOC(=O)C1CCCN(C(=O)c2sc3nc(-c4ccccc4)cn3c2C)C1 (centres undefined)
#17 C/C(=N\NC(=O)c1ccco1)c1cc(Cl)sc1Cl
#18 O=C(NC(=S)Nc1ccccc1N1CCCCC1)c1ccccc1
#19 Cc1c([N+](=O)[O-])cc(S(=O)(=O)Nc2ccncc2)cc1[N+](=O)[O-]
#20 CCN(CC)C(=O)c1nn(Cc2ccccc2)c(=O)c2ccccc12
Compound,11,12,13,14,15,16,17,18,19,20
miR-21 reporter,0%,.,26%,-4%,?,-2%,-51%,3%,-3%,3%
Rango-impB inh,-3.1%,-1.7%,0.8%,-1.2%,1.6%,0.0%,8.4%,3.2%,-2.0%,2.3%
GLA inh pH 4.5,-5,.,-2,2,-10,-10,.,-15,-17,.
Rango release inh,2%,-3%,-3%,6%,3%,-5%,0%,6%,0%,30%

Ordered by the number under miR-21 reporter (ascending): some entries from above
#17 C/C(=N\NC(=O)c1ccco1)c1cc(Cl)sc1Cl
#14 COCCNC(=S)NCCc1ccc(Cl)cc1Cl
#11 C=CCSC1=C(C#N)C(c2ccccc2OC)CC(=O)N1 (centres undefined)
#18 O=C(NC(=S)Nc1ccccc1N1CCCCC1)c1ccccc1
#13 Cc1ccc(CNC(=O)COC(=O)CCCOc2ccc(Cl)cc2Cl)cc1
Compound,17,14,11,18,13
miR-21 reporter,-51%,-4%,0%,3%,26%
Rango-impB inh,8.4%,-1.2%,-3.1%,3.2%,0.8%
GLA inh pH 4.5,.,2,-5,-15,-2
Rango release inh,0%,6%,2%,6%,-3%

Next section:
#21 COc1ccc(/C=N/n2c(N)c(S(=O)(=O)c3cccs3)c3nc4ccccc4nc32)cc1OC
#22 O=C(O)c1nn(-c2ccccc2)nc1-c1nn(-c2ccccc2)nc1C(=O)O
#23 CSc1ccccc1NC(=O)CN(Cc1ccccc1)S(C)(=O)=O
#24 O=C(OCc1ccc(Br)cc1)c1cccnc1
#25 COc1cc(CCCN2C(=O)C(=O)NC[C@@H]2Cc2ccc(O)cc2)cc(OC)c1OC
#26 CCCc1cc(=O)n2[nH]c(-c3ccccc3)cc2n1
#27 O=C(COc1ccc2c(c1)CCC2)NCc1ccccc1
#28 CC(=O)Nc1cc(OC(=O)c2ccco2)cc(OC(=O)c2ccco2)c1
#29 Cc1nonc1C1CCCN1C(=O)c1cc(COc2ccc(F)cc2Cl)on1 (centres undefined)
#30 Cc1ccccc1C(=O)N1CCC(C(=O)N2CCN(Cc3ccc4c(c3)OCO4)CC2)CC1
Compound,21,22,23,24,25,26,27,28,29,30
miR-21 reporter,-6%,1%,-6%,2%,6%,-64%,-5%,-3%,-29%,.
Rango-impB inh,2.6%,0.3%,0.3%,0.4%,-1.8%,7.2%,-0.1%,-1.1%,2.6%,0.6%
GLA inh pH 4.5,4,-16,3,.,-3,2,-4,7,-13,.
Rango release inh,-2%,1%,1%,5%,11%,-9%,-3%,0%,25%,17%

#31 CCOc1ccc(OCCNC2CCCC2)cc1
#32 CC(C)C(NC(=O)c1c(F)cccc1F)C(=O)NNC(=O)c1ccccc1 (centres undefined)
#33 COC(=O)c1cnn(-c2ccccc2)c1-n1cccc1C=O
#34 CC(=O)c1cccc(NC(=O)N2CCN(S(C)(=O)=O)CC2)c1
#35 C/C(=N\NC(=O)c1cc(-c2cccnc2)nc2ccccc12)c1ccc(O)cc1O
#36 COc1ccccc1C(=O)C1CCCN(Cc2cccc3nccnc23)C1 (centres undefined)
#37 O=C(CSc1cccc(C(F)(F)F)c1)NC(=O)c1ccccc1
#38 CCOc1cc2[nH]c(=O)n(CCCCCC(=O)NCc3ccco3)c(=O)c2cc1OCC
#39 CC1CCCN(c2c([N+](=O)[O-])cc(C(=O)O)cc2[N+](=O)[O-])C1 (centres undefined)
#40 CSc1ccc(CNCC2CCCO2)cc1 (centres undefined)
Compound,31,32,33,34,35,36,37,38,39,40
miR-21 reporter,-2%,.,-1%,-4%,22%,-6%,3%,-1%,-10%,-5%
Rango-impB inh,-4.1%,-1.1%,4.2%,0.0%,?,-3.4%,1.1%,-0.7%,-1.3%,-1.7%
GLA inh pH 4.5,0,.,1[21.1 µM],3,-16,-3,8,-6,1,.
Rango release inh,1%,0%,13%,-11%,?,-9%,14%,49%,1%,33%

#41 C=C(C)c1cccc(C(C)(C)NC(=O)NCCCn2ccnc2)c1
#42 O=C(CSc1nnc(-c2cccc(Br)c2)o1)N1CCOCC1
#43 COCCN1C(=O)N[C@@H](CCc2ccccc2)[C@@H](C(=O)OC)[C@H]1C
#44 O=C(Nc1ccc(C(=O)NC2CCCCC2)cc1)c1cncc(Br)c1
#45 CC(C)Oc1ccc(C(=O)OCC(=O)N2CCCc3ccccc32)cc1
#46 c1ccc(-c2cc3ccccc3nc2N2CCCC2)cc1
#47 C#CCOCCOCCOCCNc1nc(N2CCN(C(=O)CCCCCCCCCCNC(=O)Cn3cc(C[C@@H](C)O)nn3)CC2)nc(N2CCN(C(=O)CCCCCCCCCCNC(=O)[C@H](CCCCN)n3cc(C[C@@H](C)CC)nn3)CC2)n1
#48 COc1ccc(NS(=O)(=O)c2cccc(C(=O)NNC(=O)CNC(=O)c3ccco3)c2)cc1
#49 O=C(/C=C/c1cccc([N+](=O)[O-])c1)NCc1cccnc1
#50 COc1ccc(/C=N/NC(=O)c2sc(C)nc2C)cc1
Compound,41,42,43,44,45,46,47,48,49,50
miR-21 reporter,-2%,-1%,.,-1%,.,-1%,.,-3%,2%,9%
Rango-impB inh,1.2%,-2.5%,-0.1%,-0.3%,-1.9%,0.2%,-3.9%,-1.7%,0.3%,-4.3%
GLA inh pH 4.5,-8,.,-3,-5,.,0,.,.,0,-22
Rango release inh,-5%,9%,-23%,-6%,-7%,-4%,-5%,4%,-9%,-6%

Reformatted with values under each structure: two of the compounds above
Fields: miR-21 reporter, Rango-impB inh, GLA inh pH 4.5, Rango release inh
#15 O=C(Nc1ccccc1C(=O)Nc1nnc(C(F)(F)F)s1)c1ccccc1Cl
→ ?, 1.6%, -10, 3%
#16 CCOC(=O)C1CCCN(C(=O)c2sc3nc(-c4ccccc4)cn3c2C)C1 (centres undefined)
→ -2%, 0.0%, -10, -5%

Later entries
#51 CCCCCc1c(O)nc(SCCN2CCOCC2)[nH]c1=O
#52 COc1cccc(CN(C)C(=O)CN2C(=O)NC3(CCCc4ccccc43)C2=O)c1 (centres undefined)
#53 Cc1cc(C(=O)O)ccc1N/C=C1\CCCC(C)C1=O (centres undefined)
#54 O=C(C1CCCN(S(=O)(=O)c2cccs2)C1)N1CCN(C2CCCCC2)CC1 (centres undefined)
#55 COC(=O)[C@]1(C)CCC[C@@]2(C)C3CC[C@@]4(C)C[C@]3(CCC21)CC(=O)N4 (some centres undefined)
#56 O=C(Nc1c(C(=O)N2CCCCC2)cnn1-c1ccccc1)c1ccccc1F
#57 COc1cc(-c2nnc(Sc3ccc(C(F)(F)F)cc3[N+](=O)[O-])o2)cc(OC)c1OC
#58 O=C(NCC(=O)N(c1cccnc1)C(C(=O)NC1CCCC1)c1ccco1)c1cccs1 (centres undefined)
#59 CCc1ccc(NC(=O)C2CCN(S(C)(=O)=O)CC2)cc1
#60 CC(C)NC(=O)CSc1nccc(-c2cccs2)n1
Compound,51,52,53,54,55,56,57,58,59,60
miR-21 reporter,-1%,.,-37%,-1%,.,1%,-3%,-5%,-8%,-1%
Rango-impB inh,1.4%,-4.2%,2.8%,2.7%,-2.3%,0.5%,-0.3%,-3.7%,-0.5%,-3.8%
GLA inh pH 4.5,3,.,-1,-13,.,.,-1,-11,-6,-4
Rango release inh,-20%,4%,-13%,14%,2%,-12%,17%,-4%,9%,4%

#61 CN(C)S(=O)(=O)Oc1ccsc1C(=O)Nc1ccc(Br)cc1
#62 O=C(O)CCc1ccc(-c2cccs2)n1CC(=O)Nc1ccccc1C(F)(F)F
#63 CN(C)c1ccc(CNC(=O)C2CCN(S(=O)(=O)c3ccc4c(c3)oc(=O)n4C)CC2)cc1
#64 O=[N+]([O-])c1ccc(N2CCN(S(=O)(=O)c3ccc(Cl)cc3)CC2)cc1NCC1CCCO1 (centres undefined)
#65 CC(NC(=O)C(=O)N1CCCCC1)C(c1cccs1)N1CCN(Cc2ccccc2)CC1 (centres undefined)
#66 CCCCCCN(C(=O)CCCCCN1C(=O)NC(c2ccc(C3CCCCC3)cc2)C(C(=O)OCc2ccccc2)=C1C)C(C(=O)NCCCC)c1ccc(OCC(=O)OC)c(C(=O)OC)c1 (centres undefined)
#67 Cc1ccc(/C=N/NC(=O)c2ccc3ccccc3c2)s1
#68 O=C(COc1ccccc1)Nc1c(Cl)ccc2nsnc12
#69 Cc1ccccc1-c1nc2cc(NC(=O)C3CC3)ccc2o1
#70 C=C(C)CN(CC)C(=O)CC1C(=O)NCCN1C (centres undefined)
#71 Cc1ccc(S(=O)(=O)NCCSc2nncn2C)cc1
#72 Clc1ccc(C2=Nc3cc(Cl)ccc3OC2)cc1
Compound,61,62,63,64,65,66,67,68,69,70,71,72
miR-21 reporter,8%,2%&-9%,5%&-1%,2%,-2%,-8%,-21%,3%&2%,-61%,0%,0%,-44%
Rango-impB inh,1.5%,-5.0%,1.5%,-0.1%,-3.6%,.,-0.7%,0.3%,2.7%,0.4%,0.5%,-4.7%
GLA inh pH 4.5,-2,2,.,3,.,-2&-12,.,.,.,7,.,-6
Rango release inh,-22%,-13%,8%,8%,0%,.,25%,-2%,1%,-5%,17%,12%
